From PubChem
KCNQ2 pot = KCNQ2 (rat) channel potentiation; O88943; CHO-K1 KCNQ2, FluxOR thallium flux fluorescence; stronger effect = higher value; B-score at 10 µM; 310,000 compounds, 0.54% hits; AID 2239;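 active = fluorescence ratio B-score at least 3 SD of library B-scores, with initial fluorescence B-score within 3 SD, cut at about 5.3 in these data; same plate scores as AID 2156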;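 note: B-score of peak minus minimum over baseline fluorescence ratio after K+ and Tl+ stimulus; positive B-score means potentiation of KCNQ2 with more thallium influx and brighter signal; only the inactives scoring about 0 or higher are listed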
Target sequence (O88943 whole entry, looked up): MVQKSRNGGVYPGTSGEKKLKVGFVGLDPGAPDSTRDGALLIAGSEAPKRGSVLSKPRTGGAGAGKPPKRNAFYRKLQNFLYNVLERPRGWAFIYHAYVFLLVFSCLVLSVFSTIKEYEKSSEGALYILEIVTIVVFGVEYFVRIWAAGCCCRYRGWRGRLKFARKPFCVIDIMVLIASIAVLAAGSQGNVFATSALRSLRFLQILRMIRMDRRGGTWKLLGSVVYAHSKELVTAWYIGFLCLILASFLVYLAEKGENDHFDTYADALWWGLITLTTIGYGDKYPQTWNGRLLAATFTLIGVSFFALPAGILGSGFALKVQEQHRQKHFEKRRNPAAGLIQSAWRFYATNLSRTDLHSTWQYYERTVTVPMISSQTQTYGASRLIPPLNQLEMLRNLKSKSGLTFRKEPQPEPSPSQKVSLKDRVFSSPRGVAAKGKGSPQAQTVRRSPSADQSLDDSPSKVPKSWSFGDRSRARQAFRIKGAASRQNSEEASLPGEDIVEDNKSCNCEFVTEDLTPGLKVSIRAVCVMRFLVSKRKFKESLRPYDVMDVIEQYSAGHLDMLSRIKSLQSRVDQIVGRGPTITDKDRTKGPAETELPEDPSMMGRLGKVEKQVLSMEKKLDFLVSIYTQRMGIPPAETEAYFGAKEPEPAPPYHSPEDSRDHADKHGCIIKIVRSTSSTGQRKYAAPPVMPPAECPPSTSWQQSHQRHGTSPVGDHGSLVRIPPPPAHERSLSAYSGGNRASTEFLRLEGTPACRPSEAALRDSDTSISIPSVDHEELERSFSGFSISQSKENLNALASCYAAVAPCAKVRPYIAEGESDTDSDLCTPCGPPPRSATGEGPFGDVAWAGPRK
KCNQ2 pot baseline = further read-out of KCNQ2 pot, marked with its call; B-score; compound at 10 µM; measured here: initial fluorescence intensity artifact check;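 brightness before thallium and not channel activity; 0 = typical well and far values either way flag optical interference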
Active calls of the source: *. A portion of the library (hit frequency here may not be typical).

KCNQ2 pot	KCNQ2 pot baseline	mol
0.68	0.95	Cc1ccc(C(=O)N2CCOCC2)cc1Cl
0.47	-0.7	COc1ccc([N+](=O)[O-])cc1NCc1cccc([N+](=O)[O-])c1
1.3	-1.3	Cc1c(/C=N/O)c2ccccn2c1C=O
1.3	0.31	COc1ccc(-c2nnc(SCC(=O)NC(=O)NCc3ccccc3)o2)cc1
1.4	0.12	COc1cc(C)nc(Nc2nc(C)c(C(C)=O)s2)n1
0.05	1.2	CCCC(O)(CCC)C(=O)NN(C(=O)CCl)c1ccccc1
1.3	-1.8	COC(=O)c1[nH]c2ccc(C)cc2c1NC(=O)Oc1ccccc1
1.6	-1.7	Cc1ccc(NC(=O)c2cc(-c3cccs3)on2)cc1C
0.81	2.7	Cc1oc(-c2ccccc2)cc1C(=O)NCc1ccncc1
1.4	-0.1	CCOc1ccccc1N(CC(=O)Nc1cccc(OC)c1)S(=O)(=O)c1ccccc1
0.54	-3.2	O=C(CSc1nnc(CNC(=O)c2ccccc2F)o1)c1ccc(Cl)cc1
0.11	1.3	CC(C)(C)NC(=O)NC(=O)CSc1nnc(COc2ccccc2Cl)o1
0.74	-1.1	COc1ccc(-c2csc3ncnc(N4CCN(c5ccccc5[N+](=O)[O-])CC4)c23)cc1
1.4	-2.8	CC(NC(=O)C(=O)N1CCCCC1)C(c1cccs1)N1CCN(C)CC1 (configuration not stated)
0.68	1.4	Cc1ccc(-n2c(-c3cnccn3)n[nH]c2=S)c(Br)c1
0.72	0.22	CCN1CCN(c2ncnc3c2cnn3-c2ccc(C)cc2C)CC1
0.37	-2.1	Cn1ncc(Cl)c1C(=O)N1CCN(C(=O)c2ccco2)CC1
0.7	1.8	CS(=O)(=O)c1nncn1-c1ccccc1
0.05	0	O=C(c1ccc(SCc2ccco2)c([N+](=O)[O-])c1)N1CCOCC1
1.8	-0.45	COc1ccc(OC)c2[nH]c(=O)c(CCNC(=O)c3ccc(Br)o3)cc12
0.49	0.68	CCc1ccc(-c2nn[nH]n2)cc1
1.2	-2.2	CCOC(=O)CNC(=O)CSc1nc2cccnc2n1C
0.49	-0.45	Cc1cc(C)c(C)c(S(=O)(=O)N2CCN(C(=O)C3CSC4(C)CCC(=O)N34)CC2)c1C (configuration not stated)
0.9	-0.34	CCN(CC)C(=O)Cn1cc(C(=O)C(=O)NCc2ccco2)c2ccccc21
0.16	-1.5	CCOc1ccc(-n2c(=S)sc3c(=O)[nH]c(SCC(=O)NC(C)CC)nc32)cc1 (configuration not stated)
0.67	-1.7	NNC(=O)c1nn(-c2ccc(Cl)cc2)ccc1=O
0.8	0.42	CCCOc1ccc(C(=O)Nc2ccc(S(=O)(=O)NC3=NCCCCC3)cc2)cc1
2	-1.2	Cc1ccc(NC(=O)C2CC2C)c(Cl)c1 (configuration not stated)
0.43	-0.67	COc1ccc(CCN(C(=O)c2ccc(F)cc2)C2=CC3CCC(C2)N3C)cc1OC (configuration not stated)
0.23	0	COC(=O)/C(=C\c1cccnc1)NC(=O)c1ccc(OCc2ccccc2)cc1
0.01	-0.02	CSCc1cc(N2CCOCC2)nc(-c2ccccc2)n1
0.07	0.02	COc1cccc(NC(=O)C2CCN(S(=O)(=O)c3ccc4[nH]c(=O)ccc4c3)CC2)c1
0.23	0.13	COc1cccc(NS(=O)(=O)c2ccc3[nH]cc(C(=O)NCCCOC(C)C)c(=O)c3c2)c1
0.71	-0.06	COc1ccc(COC(=O)c2ccc(N3CCCC3=O)cc2)cc1F
0.86	-2.2	NC(=O)C1CCN(C(=O)c2ccc3nc(-c4ccccc4)c(-c4ccccc4)nc3c2)CC1
2.1	-0.36	Cc1cc(Cl)nc(SCC(=O)c2ccccc2)n1
0.38	-1.6	N=c1sccn1CC(=O)Nc1ccc(Cl)c(S(=O)(=O)N2CCOCC2)c1
0.76	-0.58	CN(CC(=O)NCc1cccnc1)S(=O)(=O)c1ccc(F)cc1
0.02	-1.1	O=C(Nc1cccc(O)c1)c1cc(-c2ccc3c(c2)OCO3)on1
1.1	-2.5	COc1cccc(NC(=O)CSc2nc3ccccc3c3nc4ccccc4n23)c1
2.6	-0.29	OCC(O)/C=N/Nc1nc(Nc2ccccc2)nc(Nc2ccccc2)n1 (configuration not stated)
1.2	-0.92	Cc1cc(C)cc(N2C(=O)c3nccnc3C2=O)c1
0.07	-0.79	COc1cc(C2C(C#N)=C(SC)NC3=C2C(=O)CCC3)ccc1O (configuration not stated)
0.19	-0.45	CC(=O)c1ccc(NC(=O)C(C)OC(=O)c2ccc(NS(=O)(=O)c3ccc(F)c(F)c3)cc2)cc1 (configuration not stated)
0.7	-0.52	CC1CCCCN1C(=O)c1ccc(CS(=O)(=O)Cc2ccccc2)cc1 (configuration not stated)
1.6	-0.45	O=C(Cc1coc2ccc3ccccc3c12)NCc1cccs1
0.07	-0.27	Cc1ccc2nc(Nc3nc(CSc4nc5ccccc5s4)cc(=O)[nH]3)nc(C)c2c1
0.04	-1.1	C=CCN(c1ccc(C(=O)Nc2cccc(C)c2)cc1)S(C)(=O)=O
3.8	-1.1	CC(OC(=O)CN1C(=O)c2ccccc2C1=O)C(=O)NC1CCCCC1C (configuration not stated)
0.68	0.69	N=c1n(CCO)c2ccccc2n1Cc1ccc(Cl)cc1
0.24	1.2	Cc1c(-n2c(SCC(=O)N(C)C3CCS(=O)(=O)C3)nc3ccccc3c2=O)c(=O)n(-c2ccccc2)n1C (configuration not stated)
0.11	-0.95	CCNc1nc(NCC)nc(N/N=C/c2ccccc2)n1
0.48	-0.05	O=C(O)/C=C\C(=O)Nc1ccccc1C(=O)NCc1ccccc1
8.2*	0.44*	CCCCCCCC(=O)N/N=C/c1ccc([N+](=O)[O-])o1
1.1	-0.76	CC(=O)c1ccc(OCC(O)CN2CC(C)OC(C)C2)cc1 (configuration not stated)
0.46	-0.02	O=C(CCNS(=O)(=O)c1ccccc1)NNC(=O)C1COc2ccccc2O1 (configuration not stated)
0.9	0.53	COC(=O)Cn1c(=NC(=O)CCS(=O)(=O)c2ccccc2)sc2c(OC)ccc(OC)c21
0.36	-0.18	CCc1nnc(NC(=O)C2CC(=O)N(Cc3ccco3)C2)s1 (configuration not stated)
0.17	1.6	CCOc1ccc(S(=O)(=O)NCc2ccncc2)cc1NC(=O)c1ccccc1F
1.9	-1.1	Cc1ccoc1C(=O)NCCCNC(=O)c1occc1C

Next section.
KCNQ2 pot	KCNQ2 pot baseline	mol
0.08	-0.46	O=C1CC(N2CCC(O)(c3ccc(Cl)cc3)CC2)C(=O)N1 (configuration not stated)
0.06	0.19	COc1ccc(OC)c(-c2cc(C3CCN(c4cc(Cl)nc(N)n4)CC3)[nH]n2)c1
0.02	-3.4	c1ccc(Cc2nnc3sc(-c4cccs4)nn23)cc1
1.1	0.84	COC(=O)c1ccc2c(=O)n(CC3CCCO3)c(SCC(=O)Nc3ccc(OC)cc3OC)nc2c1 (configuration not stated)
1	-0.59	COc1cccc(/C=N/n2cnc3cc(C)c(C)cc32)c1OC
1.4	0.47	O=C(Nc1nnc(S(=O)(=O)N2CCOCC2)s1)c1ccccc1F
1.6	0.65	CCCCCCCC(=O)N/N=C(\C)c1cccnc1
0.66	-0.15	CCc1ccc(OCCOC(=O)Nc2ccccc2)cc1
0.13	1.4	O=C(CSc1nnc(-c2ccncc2)o1)NC1C2CC3CC(C2)CC1C3 (configuration not stated)
0.01	-1.1	CCOCCn1c(CN2CCCCC2C)nc2c1c(=O)n(C)c(=O)n2C (configuration not stated)
0.04	0.25	COc1ccc(N(CC(=O)NCc2ccc3c(c2)OCO3)C(=O)CCC(=O)Nc2ccccn2)cc1
0.09	-0.09	COc1ccc(C/C(N)=N/O)cc1
0.01	0.1	COC(=O)c1ccc(NC(=O)COC(=O)c2nc3nccc(C)n3n2)cc1
0.79	-0.61	Cc1ccccc1CN1C2=NCCN2c2ccccc21
0.99	-0.27	CC(C)C[C@H](NC(=O)[C@H]1N2C(=O)c3ccccc3C2SC1(C)C)C(=O)N[C@@H](Cc1ccccc1)C(=O)O (some centres not stated)
0.05	0.47	OCCNc1nc(-c2cccnc2)nc2ccccc12
0.03	1.9	O=C(CSc1nnc(Cc2cccs2)n1Cc1ccco1)Nc1cccc(Cl)c1
0.35	-1.1	CCN(CC)S(=O)(=O)c1cccc(-c2nnc(SCC(=O)NC3CCCCCC3)n2N)c1
0.36	-0.7	O=c1cc(-c2ccccc2)cc(-c2ccccc2)n1CCCO
0.31	-0.44	O=C(O)CCc1nn2c3ccccc3n(CCN3CCCCC3)c2nc1=O
0.12	0.8	Cc1c(C)c2ccc(OCC(=O)Nc3ccccn3)c(C)c2oc1=O
0.93	-0.41	Cc1ccccc1NC(=O)CC1SC(=Nc2ccc(O)cc2)NC1=O (configuration not stated)
1.9	0.25	Cc1cc(C(C)(C)C)cc(S(=O)(=O)Nc2ccc(O)c(C(=O)O)c2)c1C
1.4	0.04	COCCN(C(=O)COC(=O)COc1ccc2c(c1)CCC2)c1c(N)n(Cc2ccccc2)c(=O)[nH]c1=O
0.18	-0.25	O=C(NNC(=O)c1ccccc1[N+](=O)[O-])Nc1ccc(Cl)cc1
0.09	-1.2	COc1ccccc1N(CC(=O)Nc1cc(C)on1)S(=O)(=O)c1ccc(Cl)cc1
2.1	0.44	COc1ccc(NC(=O)N2CCCC(C(=O)NC(C)C)C2)cc1 (configuration not stated)
0.94	-1.3	COC(=O)c1ccc2c(c1)NC(=O)CS2
1.4	-1.9	COc1cccc(CNC(=O)COc2cc3c(c4oc(=O)cc(C)c24)CCC(C)(C)O3)c1
0.12	-1.3	COc1cccc(C(=O)Nc2nnc(S(=O)(=O)N3CCCC3)s2)c1

One compound at a time, as listed above:
CCN(CC)S(=O)(=O)c1cccc(-c2nnc(SCC(=O)NC3CCCCCC3)n2N)c1 reads KCNQ2 pot: 0.35; KCNQ2 pot baseline: -1.1
O=C(NNC(=O)c1ccccc1[N+](=O)[O-])Nc1ccc(Cl)cc1 reads KCNQ2 pot: 0.18; KCNQ2 pot baseline: -0.25
O=c1cc(-c2ccccc2)cc(-c2ccccc2)n1CCCO reads KCNQ2 pot: 0.36; KCNQ2 pot baseline: -0.7

Some of the entries so far, as tab-separated lines:
molecule	KCNQ2 pot	KCNQ2 pot baseline
OCCNc1nc(-c2cccnc2)nc2ccccc12	0.05	0.47
O=C(CSc1nnc(Cc2cccs2)n1Cc1ccco1)Nc1cccc(Cl)c1	0.03	1.9
CCN(CC)S(=O)(=O)c1cccc(-c2nnc(SCC(=O)NC3CCCCCC3)n2N)c1	0.35	-1.1
O=c1cc(-c2ccccc2)cc(-c2ccccc2)n1CCCO	0.36	-0.7
O=C(O)CCc1nn2c3ccccc3n(CCN3CCCCC3)c2nc1=O	0.31	-0.44
Cc1c(C)c2ccc(OCC(=O)Nc3ccccn3)c(C)c2oc1=O	0.12	0.8

More results
KCNQ2 pot	KCNQ2 pot baseline	mol
0.76	-1	Cc1ccc(-c2nnc(NCCCO)c3ccccc23)cc1
0.69	-0.09	COc1cc(CNc2ncn[nH]2)ccc1OCC(=O)NC(C)(C)C
1.6	-0.85	CCc1sc(C(=O)Nc2cccc(C(C)=O)c2)cc1C
2.1	0.71	O=C(c1ccccc1NS(=O)(=O)c1ccc(Br)s1)N1CCOCC1
1.2	0.75	CC(C)c1ccc(S(=O)(=O)N(C)C2(C)CCS(=O)(=O)C2)cc1 (configuration not stated)
1.4	0.03	Cc1cc(NC(=O)CCC(=O)N(CC(=O)NC2CCCC2)c2ccc3c(c2)OCCO3)no1
1.1	0.61	CC(=O)N1CCN(c2ccc(NC(=O)c3ccc(Br)o3)cc2Cl)CC1
0.1	1	Cc1ccc(S(=O)(=O)CCC(=O)Oc2ccc3c(C)cc(=O)oc3c2)cc1
0.04	2.5	CCNC(=O)CC1C(=O)N(c2ccc(F)cc2)C(=O)N1CCc1ccc(OC)cc1 (configuration not stated)
0.59	0.7	Cc1noc(C)c1CCC(=O)NC1CCCN(Cc2ccc(Cl)cc2)C1 (configuration not stated)
0.44	-0.55	COc1ccc(S(=O)(=O)N(C)c2ccc(C(=O)NCC3CCCO3)cc2)cc1OC (configuration not stated)
1.3	1.4	S=C(NCc1ccccc1)NCc1ccc2c(c1)OCO2
0.04	0.09	Cc1ccc(-c2nnc(N3CCCCC3)c3ccccc23)cc1S(=O)(=O)N(C)C
0.83	-0.16	Cc1c(N/C=C/C(=O)C(F)(F)F)c(=O)n(-c2ccccc2)n1C
0.32	0.06	O=C(Nc1cccc(-c2cn3cccnc3n2)c1)c1ccc(Br)o1
0.01	-1.4	COC(=O)C1=C(C(=O)OC)[C@@H]2N(C)c3ccccc3[C@@]23C[C@@H](CO)N=C3N1
7.2*	0.89*	O=C(Nc1ccc(Cl)cc1F)C1CC1c1ccccc1 (configuration not stated)
0.97	-0.55	O=C(NCc1ccc2c(c1)OCO2)c1cccnc1Cl
0.78	0.06	COc1ccc(C)cc1NC(=O)CCN1CC(C)OC(C)C1 (configuration not stated)
0.44	0	CN1CCN(Cc2cccc(Oc3ccccc3)c2)CC1
0.18	0.12	CCOC(=O)C1(CCOc2ccccc2)CCN(C(=O)c2ccc(-n3cccn3)cc2)CC1
1.7	-0.29	O=C(Nc1cccc(Cl)c1)c1ccc(NCCCN2CCOCC2)c([N+](=O)[O-])c1
1.9	-1.8	COc1ccc(/C=N/Nc2nccnc2Cl)cc1
0.6	-1.2	Cc1cc(C(=O)NN=C2CCCCCC2)c(C)o1
0.02	1.2	O=[N+]([O-])c1ccc2nc(-c3ccccc3)n(OCc3ccc(Cl)cc3)c2c1
0.03	1.4	CCS(=O)(=O)c1nc2ccccc2n1CC(=O)N1CCCCC1
1.2	-0.16	CN(Cc1cnccn1)C(=O)C1CCC(=O)N(CCc2ccc(Cl)cc2)C1 (configuration not stated)
